# VDR inhibitor: blocks the human vitamin D receptor; VDR-SRC2-3 peptide fluorescence polarization, 2 h; Potency, µM, for the others: max response, negative = inhibition, most hits filed as inhibitors; actives 0.93% (n = 400,000); AID 504847; active = well fitted inhibition curve with a large enough effect; inconclusive = small, poorly fitted or top-dose-only effect, or another doubt; inactive = no such curve, though single readings can be large or run the other way; also: series mostly up to about 120 µM
# Target sequence (P11473 whole entry, looked up): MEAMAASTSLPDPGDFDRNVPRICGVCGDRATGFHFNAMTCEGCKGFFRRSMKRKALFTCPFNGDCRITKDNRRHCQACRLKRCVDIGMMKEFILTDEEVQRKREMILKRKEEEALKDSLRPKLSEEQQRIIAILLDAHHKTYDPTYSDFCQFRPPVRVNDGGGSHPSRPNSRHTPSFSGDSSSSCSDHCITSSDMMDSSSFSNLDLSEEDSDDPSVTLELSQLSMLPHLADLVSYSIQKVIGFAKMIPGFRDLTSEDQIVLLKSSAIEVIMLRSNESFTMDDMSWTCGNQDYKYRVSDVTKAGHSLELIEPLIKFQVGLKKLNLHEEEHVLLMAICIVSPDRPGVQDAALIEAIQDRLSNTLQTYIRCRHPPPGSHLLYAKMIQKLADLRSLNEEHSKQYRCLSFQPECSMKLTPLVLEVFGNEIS
#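 Reagent solutions, kept cold and dark, are dispensed first; compounds are then pinned in at 23 nl, plates briefly spun, and incubated 2 h at ambient temperature. Inhibition of VDR–SRC2-3 peptide binding is read by fluorescence polarization.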
# Numbers without * were called inactive; ? = inconclusive; & = joins results of further samples; [ ] = another dose, or the depositor's remark. % is scaled to controls: 0 for no effect and ±100 for the full control effect; potency is read from the fitted curve at half-maximal effect. An excerpt; count on the stated rates, not on these rows.
structure | VDR inhibitor
COC(=O)c1cc(C)nc2c1c(=O)nc(SCc1c(C)cc(C)cc1C)n2C1CC1 | 16%
COc1ccc(NC(=O)CSc2nccn2-c2ccccc2)c(OC)c1 | 5%
CN(CC(=O)Nc1ccccc1Cl)C(=O)c1cc(=O)[nH]c2ccccc12 | 7%
O=C(c1cccc(F)c1)N1CCc2ccccc21 | 11%
COc1cccc(-c2cc(C(=O)Nc3cnn(Cc4ccccc4C)c3)no2)c1 | 6%
O=C(COc1ccc(Cc2ccccc2)cc1)c1ccc(F)cc1 | 15%
CN(C)CCCN(C(=O)c1cccc(N2C(=O)CCC2=O)c1)c1nc2cc3c(cc2s1)OCO3 | -5%
c1cncc(-c2cc(NCc3cccs3)ncn2)c1 | -5%
O=c1oc2ccccc2c2c1ccc1ccccc12 | -5%
O=C(NCc1ccncc1)c1ccc(OCc2ccccc2)cc1 | -3%
CCOC(=O)c1c(NC(=O)C2CCCO2)sc2c1CCC2 (centres undefined) | -10%
COc1ccc(-c2cc(C(=O)Nc3sc4c(c3C(N)=O)CCCC4)no2)cc1 | -16%
COc1ccc(Cl)cc1C(=O)NC(=S)Nc1ccccc1N1CCOCC1 | -12%
Cn1c(=O)c([N+](=O)[O-])c(Oc2ccccc2)c2ccccc21 | ?
COc1ccc(-c2nc(CS(=O)CC(=O)NCCc3ccc(C)cc3)c(C)o2)cc1OC (centres undefined) | 6%
N#Cc1cccc(NC(=O)Cc2ccsc2)c1 | -11%
O=C(CC(c1ccccc1)(c1ccccc1)c1ccccc1)N[C@@H](Cc1ccc(O)cc1)C(=O)O | -8%
CCc1ccc(CNC(=O)C(C)n2ccc3cc(S(=O)(=O)N4CCCCCC4)ccc32)cc1 (centres undefined) | 2%
Clc1nc(-c2ccccc2)cc(-c2ccccc2)n1 | 2%
CC(CNC(=O)Cn1cnc2c(OCc3ccccc3)ncnc21)c1ccccc1 (centres undefined) | -7%
Cc1ccc(-c2cc(C(=O)Nc3cccnc3)[nH]n2)c(O)c1C | -12%
COc1ccc(C(=O)Nc2ccc3[nH]ncc3c2)cc1OC | -7%
C=CCC1C=C(C)CC(CC=C)N1 (centres undefined) | 6%
Cc1ccc(C2CC2c2n[nH]c(=S)n2-c2ccc(C)cc2)cc1 (centres undefined) | 3%
COC(=O)c1ccc(S(=O)(=O)N2CCN(C(c3ccccc3)c3ccccc3)CC2)n1C | -7%
CCc1cccc(NC(=O)Cn2nc(C)c3sc4ccccc4c3c2=O)c1 | 2%
COCCN1C(=O)N(c2ccc(Cl)cc2)C(=O)C1CC(=O)Nc1cc(OC)cc(OC)c1 (centres undefined) | -4%
CCOCCc1nnc(NC(=O)C(CC)c2ccccc2)s1 (centres undefined) | 1%
O=S(=O)(NNc1nccc(C(F)(F)F)n1)c1cccc(Cl)c1Cl | 5%
Cc1ccccc1NC(=O)/C=C1\SC(=O)NC1=O | -24%
O=C(Nc1ccccc1Cl)OC1CCCCC1 | 13%
O=C(NC(=S)Nc1ccc(N2CCOCC2)cc1)c1ccco1 | -13%
CC(C)NC(=O)C(c1ccc(F)cc1)N(C(=O)CCC(=O)Nc1ccccn1)C1CCCCC1 (centres undefined) | -10%
CCCn1c2ccccc2c2cc(C(=O)O)ccc21 | -12%
CCCCNC(=O)C1CCN(c2nc(C)cc(C)n2)CC1 | -12%
O=C(Oc1ccc(C(=S)N2CCOCC2)cc1)c1ccc([N+](=O)[O-])cc1[N+](=O)[O-] | 4%
COc1ccc(C(=O)NCC(=O)N/N=C/c2cn(C)c3ccccc23)cc1OC | 3%
O=C(NCC1CCCO1)c1ccc2c(=O)n(Cc3ccc(Cl)cc3)c(=S)[nH]c2c1 (centres undefined) | -21%
O=C(Nc1cccc(Br)c1)c1ccc(CSc2ccccc2)cc1 | -6%
COc1ccccc1NC(=O)CSc1nnnn1C1CCCC1 | -7%
CC1CC(C)CN(S(=O)(=O)c2ccc3c(c2)oc(=O)n3CC(=O)N2CCOCC2)C1 (centres undefined) | 7%
COc1cccc(NC(=O)C(Sc2nnc(-c3ccncc3)n2-c2ccc(Cl)cc2)c2ccccc2)c1 (centres undefined) | 2%
Cc1onc(C(=O)NCc2cccs2)c1[N+](=O)[O-] | -3%
COc1ccc(C2(CNC(=O)C(=O)Nc3ccc(C)c(Cl)c3)CCCC2)cc1OC | -3%
Cn1cnc(S(=O)(=O)N2CCC(C(=O)NCc3ccc(F)cc3)CC2)c1 | 4%
CCc1cc[n+](-c2nc([O-])sc2C=O)cc1 | -3%
CC(CNS(=O)(=O)c1ccccc1)(c1ccccc1)N1CCOCC1 (centres undefined) | -7%
Cc1cc(N2CCOCC2)nc(-c2ccccc2O)n1 | -11%
Cc1noc(NS(=O)(=O)c2ccc(NC(=O)CCC3CCCCC3)cc2)c1C | 1%
Cc1noc(C)c1C(=O)N1CCC[C@@]2(CCN(Cc3ccccc3)C2)C1 | 1%
Cn1c(N)c(S(=O)(=O)N2CCN(C(=O)c3ccco3)CC2)c(=O)n(C)c1=O | -4%
CC(C)Oc1ccc(/C(O)=C2/C(=O)C(=O)N(CCN(C)C)C2c2ccco2)cc1 (centres undefined) | 4%
COc1ccccc1/C=C/C=NC1C(=O)N(c2ccccc2)[N+](C)=C1C (centres undefined) | 3%
N#Cc1ccc(C(=O)Nc2cc3nn(-c4ccccc4)nc3cc2Cl)c(F)c1 | -4%
COc1ccc2nc(SCC(=O)NCc3ccccc3)[nH]c2c1 | -10%
CCN1CCN(CCCNc2ncnc3nc[nH]c23)CC1 | -6%

# Next part
structure | VDR inhibitor
O=C(O)CC(NC(=O)c1sc2ccccc2c1Cl)c1ccc(OC2CCCC2)cc1 (centres undefined) | -2%
COc1ccc(OC)c(NC(=O)C(C)OC(=O)c2cc3ccccc3[nH]2)c1 (centres undefined) | -9%
Cc1cccc(NC(=S)Nc2ccc(Br)cc2)c1 | -10%
CSc1sc(C)cc1C=O | 4%
CCN(CC)c1ccc(NC(=O)c2cc(Cl)ccc2OC)cc1 | 6%
COc1cc(CNCc2cccs2)cc(Br)c1OC | -11%
CC1CCCC(C)N1NC(=O)c1ccc(Cl)c(S(N)(=O)=O)c1 (centres undefined) | -7%
CN(CC(=O)NCCc1ccc(S(N)(=O)=O)cc1)CC(=O)Nc1ccccc1Cl | -10%
COc1ccccc1-n1nnnc1SCC(=O)NCC1(N2CCCCC2)CCCCC1 | 8%
CCOCCCNc1nc(-c2ccccc2)nc2ccccc12 | -6%
C[C@@H]1CN(c2c(F)c(F)c3c(=O)c(C(=O)O)cn(C4CC4)c3c2F)C[C@H](C)N1 | 16%&1%&3%
Cc1nnc(SCC(=O)N2CC(C)OC(C)C2)n1-c1ccccc1 (centres undefined) | -21%
CC(C)N(C(=O)c1ccc2nc(-c3ccccc3)c(-c3ccccc3)nc2c1)C(C)C | -5%
Cc1nnc(NC(=O)COc2ccc3c(C)cc(=O)oc3c2)s1 | 3%
C=CCN(CC=C)C(=O)c1cc(Cl)ccc1[N+](=O)[O-] | 4%
CC1CCCCC1NC(=O)CCS(=O)(=O)c1cc2c(cc1Cl)NC(=O)CO2 (centres undefined) | 4%

# Five entries already listed, arranged by count of non-hydrogen atoms, ascending.
structure | VDR inhibitor
C=CCN(CC=C)C(=O)c1cc(Cl)ccc1[N+](=O)[O-] | 4%
CCOCCCNc1nc(-c2ccccc2)nc2ccccc12 | -6%
Cc1nnc(SCC(=O)N2CC(C)OC(C)C2)n1-c1ccccc1 (centres undefined) | -21%
CC1CCCCC1NC(=O)CCS(=O)(=O)c1cc2c(cc1Cl)NC(=O)CO2 (centres undefined) | 4%
CC(C)N(C(=O)c1ccc2nc(-c3ccccc3)c(-c3ccccc3)nc2c1)C(C)C | -5%

# 6 compounds out of the list above, ordered by the value under VDR inhibitor, rising:
Molecule,VDR inhibitor
O=C(CC(c1ccccc1)(c1ccccc1)c1ccccc1)N[C@@H](Cc1ccc(O)cc1)C(=O)O,-8%
Cc1onc(C(=O)NCc2cccs2)c1[N+](=O)[O-],-3%
Cc1noc(C)c1C(=O)N1CCC[C@@]2(CCN(Cc3ccccc3)C2)C1,1%
COc1cccc(NC(=O)C(Sc2nnc(-c3ccncc3)n2-c2ccc(Cl)cc2)c2ccccc2)c1 (centres undefined),2%
COc1ccc(NC(=O)CSc2nccn2-c2ccccc2)c(OC)c1,5%
O=C(Nc1ccccc1Cl)OC1CCCCC1,13%

# Next section:
structure | VDR inhibitor
CCOC(=O)Cn1nc(-c2ccc(C)cc2)c2ccccc2c1=O | -26%
C=CCOc1ccc(/C=C/C(=O)OCC(=O)NCC2CCCO2)cc1 (centres undefined) | -15%
COc1ccc(-c2noc(C(C)NC(=O)c3ccco3)n2)cc1 (centres undefined) | 7%
COc1ccc(C(C)NS(=O)(=O)Cc2ccccc2)cc1 (centres undefined) | -10%
CCOc1ccc(NC(=O)c2ccc(NC(=O)Cc3n[nH]c(=O)c4ccccc34)cc2)cc1 | -5%
CCOc1ccc2nc(N(CCCN(C)C)C(=O)c3ccc(S(=O)(=O)N4CCCC4)cc3)sc2c1 | 21%
CC(=O)Nc1ccc(NC(=O)C2CC(=O)N(c3cccc(Cl)c3)C2)cc1 (centres undefined) | -19%
COc1ccc(-n2nc(C(=O)NCC(=O)N3CCN(c4ccccc4F)CC3)c3ccccc3c2=O)cc1 | -15%
COCCn1c(SC(C)C(=O)NCC2CCCO2)nc2scc(-c3ccc(F)cc3)c2c1=O (centres undefined) | -16%
Cc1cc(NCCCN2CCOCC2)n2nc(C)c(-c3ccc(F)cc3)c2n1 | 15%
CC(NC(=O)C1CCCN(S(=O)(=O)N2CCOCC2)C1)c1ccccc1 (centres undefined) | 7%
Cc1cccc(CNC(=O)Cn2ccc3cc(S(=O)(=O)N4CCCC4)ccc32)c1 | -3%&24%
O=c1c2cc([N+](=O)[O-])cc([N+](=O)[O-])c2[nH]n1-c1ccccc1 | -11%
CC(C)OCCCNC(=O)C1CCC(CNS(=O)(=O)c2ccc(Cl)cc2)CC1 (centres undefined) | -1%
CC(=O)Nc1ccc(S(=O)(=O)Nc2nnc(Cc3ccc(Cl)cc3)s2)cc1 | -14%
O=S(=O)(c1ccc(Br)cc1)N1CCn2cccc2C1c1ccc(Br)cc1 (centres undefined) | 2%
Cc1ccc(S(=O)(=O)Nc2ccc3cn[nH]c3c2)cc1 | 10%
CC(NC(=O)CCCCCNC(=O)N1CCn2c1nc1ccccc12)c1ccccc1 (centres undefined) | 0%
Cc1cc(Br)ccc1NC(=O)CNC(=O)CSc1nccn1C | -19%
O=C1CC(c2ccc(O[C@@H]3OC(CO)[C@@H](O)C(O)C3O)cc2)Oc2cc(O)ccc21 (some centres undefined) | -8%
S=C(/N=c1/sccn1Cc1ccccc1)NC1CC1 | 10%
O=[N+]([O-])c1cc(Br)ccc1C[n+]1ccccc1 | 5%
CCN(C(=O)CSc1nnc(C2CC2)n1-c1ccccc1)C1CCS(=O)(=O)C1 (centres undefined) | -27%
Cc1cc2c(c(=O)n1CCN(C)C)C(c1ccncc1)C(C#N)=C(N)O2 (centres undefined) | -14%
O=C(Nc1cccc(NC(=O)c2cc([N+](=O)[O-])ccc2Cl)n1)c1cc([N+](=O)[O-])ccc1Cl | -9%
COc1ccccc1-n1c(SCC(=O)NC2CCCCC2)nc2c(c1=O)SCC2 | 5%
CCn1c(-c2cccs2)nc2ccccc21 | -20%
CCOc1ccc(NC(=O)Cn2c(=O)n(Cc3ccco3)c(=O)c3ccc(C(=O)NC4CCCC4)cc32)cc1 | -1%
CC1(C)CC(=O)C2=C(C1)OC(=O)CC2c1cccs1 (centres undefined) | 5%
Cc1ccc(C(=O)N2CC(C)CC(C)C2)cc1S(=O)(=O)N1CCCCC1 (centres undefined) | 1%
Cc1cc(C(=O)N2CCC(C(N)=O)CC2)c(C)o1 | ?
COC(=O)CC1C(C)(C)C(=O)C2CC3=C(CC[C@]4(C)C3=CC(=O)OC4c3ccoc3)[C@@]1(C)C2=O (some centres undefined) | 3%
Cc1c(Cl)cccc1NC(c1ccc(F)cc1)c1nnc(-c2ccccc2)o1 (centres undefined) | 1%
COc1cc(C(CC(=O)Nc2cc(C)ccc2C)N2Cc3ccccc3C2=O)cc(OC)c1OC (centres undefined) | 7%
CN(C)c1nc(N)c(C#N)c(C#N)c1C#N | -14%
COc1ccc(C(=O)COC(=O)Cc2n[nH]c(=O)c3ccccc23)c(OC)c1 | -12%
Cc1ccc(S(=O)(=O)N(C)Cc2ccccc2)cc1C(=O)N1CCCCC1 | -12%
CC1(C)Cc2nc(Cl)c(C(=O)O)cc2CO1 | 30%[activator]
O=C(COC(=O)CNC(=O)c1ccc(F)cc1)NC1CCCc2ccccc21 (centres undefined) | -3%
CC1=NN2C(=N)/C(=C\c3cc(C)n(-c4ccccc4)c3C)C(=O)N=C2S1 | -20%
COCCNC(=O)C(NC(=O)C1CCCCC1)C12CC3CC(CC(C3)C1)C2 (centres undefined) | 1%
CCOC(=O)c1cnc2nc(NCc3ccc(OCc4ccccc4)cc3)[nH]n2c1=O | 11%
Cn1cc(S(=O)(=O)c2ccc(Cl)cc2)c(=O)c2cc(F)c(N3CCOCC3)cc21 | 3%
O=C(Nc1nc2ccccc2s1)C1c2ccccc2Oc2ccccc21 | -11%
O=C1CN2C(=Nc3ccc(Cl)cc3C2c2ccccc2)CN1 (centres undefined) | -9%
C[C@H](CO)N1C[C@H](C)[C@@H](CN(C)CC2CC2)Oc2c(NS(=O)(=O)c3ccccc3)cccc2C1=O | 7%
CC1(C)Cc2c(sc3c2c(=O)n(Cc2ccccc2)c2nncn32)CO1 | 8%
COC(=O)c1[nH]c2ccc(F)cc2c1NC(=O)Nc1ccc(OC)cc1 | -5%
